# Compound activity from PubChem.
# nsP2pro inh: CHIKV nsP2 protease inhibition, primary qHTS; FRET peptide cleavage, nsP2pro, fluorescence 1 h; Potency, µM (titrated, usually from 24.9 µM), without a hit: at the highest dose activity change, negative = inhibition, actives largely listed as inhibitors; hit rate 1.1% among 31,000; active means well fitted inhibition curve with a large enough effect; inconclusive means small, poorly fitted or top-dose-only effect; inactive means no such curve, though single readings can be large or run the other way; further: nearly all actives have a fitted effect of over 60% in size; a reference inhibitor and vehicle were the controls
# Target sequence (Q8JUX6 whole entry, looked up): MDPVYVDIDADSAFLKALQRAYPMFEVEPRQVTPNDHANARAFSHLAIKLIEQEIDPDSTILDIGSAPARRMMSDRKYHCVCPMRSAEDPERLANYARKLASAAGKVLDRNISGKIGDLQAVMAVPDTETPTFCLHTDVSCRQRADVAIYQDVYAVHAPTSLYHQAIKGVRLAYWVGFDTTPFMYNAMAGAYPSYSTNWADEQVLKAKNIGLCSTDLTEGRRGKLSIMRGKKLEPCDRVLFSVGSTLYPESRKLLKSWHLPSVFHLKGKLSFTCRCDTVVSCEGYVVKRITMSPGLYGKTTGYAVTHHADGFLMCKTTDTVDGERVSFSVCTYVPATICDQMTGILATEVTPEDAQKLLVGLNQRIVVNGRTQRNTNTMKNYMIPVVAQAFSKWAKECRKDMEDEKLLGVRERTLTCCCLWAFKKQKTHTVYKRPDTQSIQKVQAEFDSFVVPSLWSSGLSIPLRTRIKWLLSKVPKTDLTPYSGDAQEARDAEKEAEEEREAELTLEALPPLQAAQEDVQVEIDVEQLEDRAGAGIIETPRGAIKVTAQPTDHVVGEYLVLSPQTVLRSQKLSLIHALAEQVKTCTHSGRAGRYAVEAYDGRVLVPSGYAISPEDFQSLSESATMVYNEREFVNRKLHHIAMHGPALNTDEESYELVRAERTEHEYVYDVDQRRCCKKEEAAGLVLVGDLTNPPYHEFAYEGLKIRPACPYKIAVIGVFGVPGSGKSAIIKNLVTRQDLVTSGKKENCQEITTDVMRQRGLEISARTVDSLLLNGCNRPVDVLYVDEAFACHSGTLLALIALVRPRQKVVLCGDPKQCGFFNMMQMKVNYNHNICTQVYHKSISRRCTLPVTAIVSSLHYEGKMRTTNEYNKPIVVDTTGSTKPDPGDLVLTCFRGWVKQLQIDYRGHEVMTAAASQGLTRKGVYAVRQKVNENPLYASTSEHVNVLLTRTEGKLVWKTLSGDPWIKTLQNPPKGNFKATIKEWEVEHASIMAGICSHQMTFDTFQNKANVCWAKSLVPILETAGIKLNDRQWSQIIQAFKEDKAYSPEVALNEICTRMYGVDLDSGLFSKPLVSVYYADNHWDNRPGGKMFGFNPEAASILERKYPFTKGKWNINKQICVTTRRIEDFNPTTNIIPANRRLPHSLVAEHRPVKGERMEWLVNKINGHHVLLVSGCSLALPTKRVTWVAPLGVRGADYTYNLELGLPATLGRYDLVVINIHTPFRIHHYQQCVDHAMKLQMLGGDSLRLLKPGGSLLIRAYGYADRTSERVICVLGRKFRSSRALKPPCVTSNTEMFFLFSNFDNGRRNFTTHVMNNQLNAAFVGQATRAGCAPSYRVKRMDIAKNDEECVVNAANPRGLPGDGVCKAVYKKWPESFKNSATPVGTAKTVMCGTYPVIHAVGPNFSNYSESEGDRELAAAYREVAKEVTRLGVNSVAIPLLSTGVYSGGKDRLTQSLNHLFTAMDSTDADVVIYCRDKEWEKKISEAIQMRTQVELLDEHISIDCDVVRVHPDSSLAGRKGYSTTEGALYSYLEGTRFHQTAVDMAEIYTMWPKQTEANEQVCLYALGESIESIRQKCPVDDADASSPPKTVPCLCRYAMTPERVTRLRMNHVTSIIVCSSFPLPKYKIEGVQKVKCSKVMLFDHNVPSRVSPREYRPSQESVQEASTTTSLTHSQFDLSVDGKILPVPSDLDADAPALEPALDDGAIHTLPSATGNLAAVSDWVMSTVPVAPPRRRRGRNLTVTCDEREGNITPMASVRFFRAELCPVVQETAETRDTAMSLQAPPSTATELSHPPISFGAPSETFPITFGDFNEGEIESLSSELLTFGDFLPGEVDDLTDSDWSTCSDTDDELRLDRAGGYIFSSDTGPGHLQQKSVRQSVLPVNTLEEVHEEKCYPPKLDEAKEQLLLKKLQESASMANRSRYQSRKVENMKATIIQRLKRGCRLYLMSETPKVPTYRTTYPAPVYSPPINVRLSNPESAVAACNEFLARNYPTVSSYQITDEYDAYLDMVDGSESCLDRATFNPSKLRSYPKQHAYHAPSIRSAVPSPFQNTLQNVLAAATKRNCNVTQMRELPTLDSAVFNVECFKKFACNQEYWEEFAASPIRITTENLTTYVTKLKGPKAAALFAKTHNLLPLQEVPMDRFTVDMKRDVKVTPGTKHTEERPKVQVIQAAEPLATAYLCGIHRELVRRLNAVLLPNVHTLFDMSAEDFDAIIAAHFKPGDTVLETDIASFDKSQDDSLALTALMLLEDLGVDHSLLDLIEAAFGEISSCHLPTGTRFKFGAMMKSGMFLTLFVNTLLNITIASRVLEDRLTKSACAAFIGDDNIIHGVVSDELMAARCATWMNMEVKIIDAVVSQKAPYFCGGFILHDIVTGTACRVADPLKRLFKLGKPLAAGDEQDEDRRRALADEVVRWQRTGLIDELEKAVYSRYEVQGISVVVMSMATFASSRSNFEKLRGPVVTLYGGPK
# Starred values were filed as active, the others as inactive; i = inactive; ? = inconclusive; & = joins results of further samples; [ ] = dose if it differs, or a comment. On the % scale 0 is the no-effect control and ±100 the full control effect; potency means the concentration at half of the fitted maximal effect. This is a subset; the hit share may differ from the screen's.
entry	Structure	nsP2pro inh
1	Cc1ccc(CNC(=O)c2cnn(-c3ccc(F)cc3F)c2C2CCN(C(=O)OC(C)(C)C)CC2)cc1	45%[activator]
2	COc1ccc(NC(=O)Cn2c3ncccc3c(=O)n2-c2ccc(C)c(C)c2)c(OC)c1	-12%
3	CCN(C(=O)Cc1nc(-c2ccc(OC)cc2)no1)c1cccc(Cl)c1	-18%
4	COc1ccccc1-c1ccc2c(n1)CN(Cc1ccccc1C)C(=O)CO2	4%[39.2 µM]
5	Cc1ccc2nc(COc3cccc(NC(=O)c4cccc(Cl)c4)c3)cc(=O)n2c1	-16%
6	CC(=O)OC[C@H]1O[C@@](COC(C)=O)(O[C@H]2O[C@H](COC(C)=O)[C@@H](OC(C)=O)[C@H](OC(C)=O)[C@H]2OC(C)=O)[C@@H](OC(C)=O)[C@@H]1OC(C)=O	-1%
7	Cc1oc(-c2ccccc2Cl)nc1CS(=O)(=O)CC(=O)NC(C)CCc1ccccc1 (stereo not drawn)	-12%
8	Cc1ccc(O)cc1	5%
9	CCCCNC(=O)CCCn1c(=O)c2ccccc2n(Cc2ccccc2C)c1=O	-19%
10	CN(C)CC[C@@H](c1ccc(Cl)cc1)c1ccccn1	-5%
11	COc1ccc(OC)c(NC(=O)C2CCCN(S(=O)(=O)c3c(C)nn(C)c3C)C2)c1 (stereo not drawn)	-11%
12	Cc1cccc(N2CCn3c2nc2c3c(=O)n(CCc3ccccc3)c(=O)n2C)c1	-26%
13	COC(=O)c1cccnc1-n1c(=O)c2cccnc2n(CC(=O)Nc2cccc(C(F)(F)F)c2)c1=O	-10%
14	CCN1CCN(Cc2cc3ccc(C)cc3nc2-c2ccc(OC)c(OC)c2)CC1	0%
15	O=C(NCCCN1CCc2ccccc2C1)C1CCc2ncc(-c3ccc(F)cc3)n2C1 (stereo not drawn)	i
16	C=CC(C)(C)c1[nH]c2c(CC=C(C)C)cc(CC=C(C)C)cc2c1C[C@@H]1NC(=O)[C@H](C)NC1=O	2%
17	CCc1ccc(-c2nc3ccc(Br)cc3c(C(=O)O)c2C)s1	-14%
18	COc1ccc2c(=O)n3nc(Nc4cccc(N5CCN(C)CC5)c4)sc3nc2c1	i
19	O=C1CCCc2[nH]c(=O)c(-c3nc(-c4cccc([N+](=O)[O-])c4)cs3)cc21	-11%
20	Cc1cccc(NC(=O)C2CCN(c3nnc(-n4c(C)ccc4C)s3)CC2)c1C	-12%

# Compounds shown so far that have sulfur:
entry	Structure	nsP2pro inh
7	Cc1oc(-c2ccccc2Cl)nc1CS(=O)(=O)CC(=O)NC(C)CCc1ccccc1 (stereo not drawn)	-12%
11	COc1ccc(OC)c(NC(=O)C2CCCN(S(=O)(=O)c3c(C)nn(C)c3C)C2)c1 (stereo not drawn)	-11%
17	CCc1ccc(-c2nc3ccc(Br)cc3c(C(=O)O)c2C)s1	-14%
18	COc1ccc2c(=O)n3nc(Nc4cccc(N5CCN(C)CC5)c4)sc3nc2c1	i
19	O=C1CCCc2[nH]c(=O)c(-c3nc(-c4cccc([N+](=O)[O-])c4)cs3)cc21	-11%
20	Cc1cccc(NC(=O)C2CCN(c3nnc(-n4c(C)ccc4C)s3)CC2)c1C	-12%

# New compounds follow:
entry	Structure	nsP2pro inh
21	N#Cc1nc(Nc2cccc(C(F)(F)F)c2)nc(NC2CCCC2)n1	i
22	CC(=O)NCc1nnc2n1C(C(=O)NC1CCCCCC1)CC2 (stereo not drawn)	-22%[39.2 µM]
23	CCOC(=O)COc1ccc([N+](=O)[O-])cc1-c1ccnc2cc(-c3ccc(C)cc3)nn12	-13%
24	O=C(NCc1cccc(Br)c1)c1ccc(-n2cnc3cccnc32)cc1	3%
25	COc1cccc(C2C(C(N)=O)=C(C)Nc3ncnn32)c1 (stereo not drawn)	-12%
26	CCOc1ccc(-c2cn3c(n2)sc2cc(C(=O)NCCC4=CCCCC4)ccc23)cc1	-15%
27	O=C(c1cccc2c1NCCC2)N1CCn2nc(C(O)C3CC3)cc2C1 (stereo not drawn)	-1%
28	Cc1ccnc(NC(=S)N2CCCN(c3cccc(C(F)(F)F)c3)CC2)c1	?
29	COc1ccc(NC(=O)c2[nH]c(C)c(C(C)=O)c2C)cc1S(=O)(=O)Nc1ccc(C#N)cc1	i
30	C=C(C(=O)O)C1CC(OC(=O)CC(C)CC)C2(C)CCCC(=C)C2C1 (stereo not drawn)	?
31	CCCCN1CCN(C(=O)C2(c3ccc(NS(C)(=O)=O)cc3)CCCCC2)CC1	?
32	O=c1n(CC2CC2)nc2n1CCN(S(=O)(=O)Cc1ccccc1)CC2	-4%
33	CC(C)(O)/C=C1/C(=O)C(C)(C)C(=O)C(C)(C)C1(O)O[C@@H]1O[C@H](COC(=O)c2cc(O)c(O)c(O)c2)[C@@H](O)[C@H](O)[C@H]1O (stereo partly drawn)	-17%[10 µM]
34	CCCN(C(=O)c1cc2c(=O)[nH]c3ccc(C)cc3c2s1)c1ccc(CC)cc1	-16%
35	O=C(NCc1ccccc1)N1CCCCC1c1nc(-c2cnccn2)n[nH]1 (stereo not drawn)	4%
36	CC1CCCCN1CCNC(=O)c1ccc(Cn2c(SCc3ccccc3)nc3cccnc32)cc1 (stereo not drawn)	0%
37	O=C1N[C@H](CC(=O)N2CCN(Cc3ccccc3Cl)CC2)C(=O)Nc2ccccc21	?
38	Cn1nc(C(=O)NCc2ccc(Cl)cc2)c2c1-c1ccccc1S(=O)(=O)C2	-7%
39	COc1ccc(NC(=O)Cn2c(=O)oc3cc(S(=O)(=O)NC4CCCC4)ccc32)cc1OC	-10%
40	Cc1ccc(NC(=O)N2CCN3CCCCC3C2)cc1C (stereo not drawn)	-17%
41	CCC(CC)CC1(C(=O)Nc2ccccc2SC(=O)C(C)C)CCCCC1	-11%&-4%
42	CCC(C(=O)Nc1ccccc1F)N1C(=O)CN=C(c2ccccc2)c2ccccc21 (stereo not drawn)	-9%
43	Cn1cnc(C(=O)N2CCC3(CC2)CC(N(Cc2ccccc2)C2CC2)CCO3)c1 (stereo not drawn)	0%
44	CCc1ccc(C(=O)c2cn(CC(=O)Nc3ccc4c(c3)OCCO4)c3ccc(F)cc3c2=O)cc1	-16%
45	CC(C)c1nccn1CCCNC(=O)c1ccc(-c2cccnc2)nc1	i
46	CCc1ccccc1N(c1nc(-c2ccc(OC)c(OC)c2)no1)c1nc(-c2ccc(OC)c(OC)c2)no1	-21%
47	Cc1ccc(Cl)cc1NC(=O)CN1C(=O)CCc2ccccc21	-7%
48	CCNC(=O)N[C@@H]1C=C[C@@H](c2c(C)nn(-c3ccc(F)cc3)c2C)C1	2%[39.2 µM]
49	O=C(NCc1cccs1)c1ccc(CSc2nc3cccnc3n2Cc2ccccc2F)cc1	15%
50	Brc1cccc(CNCCSc2nnnn2-c2ccccc2)c1	-30%
51	Cc1cc(CN2C[C@@H](CO)[C@H](NC(=O)C3CCC3)C2)n(C)n1	-6%
52	O=c1c2ccccc2nc2sc(NCc3ccc([S+](=O)([O-])c4ccccc4)cc3)nn12	-5%
53	O=C(Nc1ccc(S(=O)(=O)Nc2nccs2)cc1)C1CCC2(CCC2)CC1	-6%
54	COC1C(=O)N(C2CCN(C(=O)C3CC3)CC2)C12CCOCC2 (stereo not drawn)	i
55	O=C(CCCCCn1c(=O)[nH]c2ccsc2c1=O)NCc1ccccc1	-22%
56	O=C(O)C(O[C@@H]1O[C@H](CO[C@@H]2O[C@H](CO)[C@@H](O)[C@H](O)[C@H]2O)[C@@H](O)[C@H](O)[C@H]1O)c1ccccc1 (stereo partly drawn)	-10%[10 µM]
57	COCCC(=O)N1CC(c2nc(CCOc3cccc(C)c3)no2)C1	?
58	Cc1ccc(NC(=O)c2cnn3c(C)cc(C)nc23)c(C)c1	0%
59	C[C@](O)(CS(=O)(=O)c1ccc(F)cc1)C(=O)Nc1ccc(C#N)c(C(F)(F)F)c1	-7%&1%
60	CNCc1cc(-c2ccccc2F)n(S(=O)(=O)c2cccnc2)c1	2%&6%

# Fetched by structure from the list above:
entry	Structure	nsP2pro inh
44	CCc1ccc(C(=O)c2cn(CC(=O)Nc3ccc4c(c3)OCCO4)c3ccc(F)cc3c2=O)cc1	-16%
52	O=c1c2ccccc2nc2sc(NCc3ccc([S+](=O)([O-])c4ccccc4)cc3)nn12	-5%

# Additional results follow.
entry	Structure	nsP2pro inh
61	C=CCc1cccc2cc(C(=O)Nc3cccc(Cl)c3)c(=O)oc12	-16%
62	CC(C)(C)OC(=O)N1CCC(c2c(C(=O)NC3CCCCC3)cnn2-c2ccc(F)cc2F)CC1	-15%
63	COc1ccc(-c2nc3ccccc3o2)cc1NC(=O)CSc1ccc(Cl)cc1	-13%
64	O=C(Nc1ccc(CN2CCOCC2)cc1)c1ccc(-c2cccc(Cl)c2)o1	6%
65	N[C@@H]1c2cccnc2[C@H](OC(=O)N2CCC(n3c(=O)[nH]c4ncccc43)CC2)CC[C@H]1c1cccc(F)c1F	-1%&10%
66	O=C(O)c1ccc(O)c2ncc(N3CCCCC3CCc3ccccn3)cc12 (stereo not drawn)	i
67	CCCN(CCC)C(=O)Cn1c(=O)n(-c2ccc(CC)cc2)c(=O)c2ccc(C(=O)NCCc3ccccc3)cc21	-16%
68	COc1cccc(CNC(=O)C2CCN(C(=O)c3cnn(-c4ccccc4)c3-n3cccc3)CC2)c1	-10%
69	CC(C)NC(=O)c1ccc(Cn2c(SCC(N)=O)nc3ccccc3c2=O)cc1	-17%
70	CC1=NOC2(CCN(Cc3ccc(Cl)cc3)CC2)C1	i
71	Cc1ccc(OCCn2c(CCNC(=O)c3ccccn3)nc3ccccc32)cc1	-3%
72	Cc1cc(NC(=O)CN2CCC(O)CC2)nc2c1c(=O)oc1ccccc12	-4%
73	COc1ccc(Cl)cc1NC(=O)Cn1c(=O)n(Cc2cccs2)c(=O)c2cccnc21	-10%
74	CCOC(=O)c1sc(NC(=O)C2c3ccccc3Oc3ccccc32)c(C(=O)OCC)c1C	?
75	CN1CCN(c2cc(=O)c3ccnc(Nc4ccc(F)c(Cl)c4)c3o2)CC1	?
76	CCOc1ccc(CC(=O)Nc2c(C(=O)c3ccc(F)cc3)oc3ccc(Cl)cc23)cc1OCC	-16%
77	CCOC(=O)Cn1c(=O)n(CC2CCCO2)c2nc(-c3c(F)cccc3Cl)nc(C(N)=O)c21 (stereo not drawn)	-9%
78	Cc1ccc(-c2nc(NC(=O)CSc3ccc4ccccc4n3)ns2)cc1	-15%
79	COc1ccc(OCC2CN(Cc3cccs3)[S+](=O)([O-])c3cccnc3O2)cc1 (stereo not drawn)	-19%[10 µM]
80	CN(C)c1cccc(-c2nc(N3CCC(C(N)=O)CC3)ncc2F)c1	5%

# Single entries from above.
# no. 71 – nsP2pro inh = -3%
# no. 67 – nsP2pro inh = -16%
# no. 69 – nsP2pro inh = -17%

# More compounds:
entry	Structure	nsP2pro inh
81	CC(C)(C)[C@H](NC(=O)C(F)(F)F)C(=O)N1C[C@H]2[C@@H]([C@H]1C(=O)N[C@H](C#N)C[C@@H]1CCNC1=O)C2(C)C	-6%
82	CC[C@H]1CN(Cc2ccc(OC)cc2O)CC[C@H]1CC(=O)N1CCOCC1	-13%[39.2 µM]
83	Cn1ncc(-c2nnc(-c3ccccc3)n2CCCn2ccnc2)c1N	-3%
84	Nc1c(C(=O)Nc2cccc(F)c2)nnn1-c1cccc(C(F)(F)F)c1	16%
85	CN(C(=O)CSc1nc2ccc(NC(=O)c3ccco3)cc2s1)c1ccccc1	-6%
86	C[C@@H]1CN(C(=O)c2cccc(N3CCNC3=O)c2)C[C@@]1(O)C1CC1	i
